Bioassay records (PubChem)
Vaccinia inh – Vaccinia orthopox stage-specific inhibition; Vaccinia-infected cells, mCherry/Venus stage reporter fluorescence; active compounds read low; some inactives read as strong as hits; activity change (mCherry), % (concentration not given with the values); actives 0.01% (n = 89,000);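 active = mCherry past -33% and 40 or more points under the early reporter, replicates agreeing; inconclusive = past -33% without that gap or agreement; tested in A549 cells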;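 also: scaled between vehicle wells and reference inhibitor wells; 23 nL library stock went into each well; one replicate is shown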
Vaccinia inh Venus – second read-out of Vaccinia inh, no call of its own (marks repeat the call); activity change (Venus), %; measured here: Venus reporter, other viral stage;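 negative = less Venus signal; first of two replicates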
The depositor's hits bear a star; ? = inconclusive; / = no result given. Only part of the results is shown (hit frequency here may not be typical).

SMILES | Vaccinia inh | Vaccinia inh Venus
O=C(C[C@@H]1CC[C@H](NC(=O)C2CCC2)[C@@H](CO)O1)NC1CCCCC1 | 10.8 | 6.8
C[C@H](CO)N1C[C@H](C)[C@@H](CN(C)C(=O)Nc2ccc(F)cc2)Oc2ccc(NC(=O)Cn3cnnn3)cc2C1=O | 15.1 | 11.7
C[C@H]1CN([C@@H](C)CO)C(=O)Cc2cc(NS(=O)(=O)c3cn(C)cn3)ccc2O[C@@H]1CN(C)C(=O)Nc1ccc(C(F)(F)F)cc1 | 7.6 | 3.3
O=C(c1ccccc1)N1[C@H](CO)[C@H](c2ccccc2)C12CN(Cc1nccs1)C2 | 20.7 | 22.9
CC=Cc1ccc2n(c1=O)C[C@H]1[C@H](CO)[C@@H](C(=O)Nc3nccs3)N(Cc3ccccc3F)[C@@H]21 (mixture of isomers) | 8.0 | 21.5
C[C@@H]1CN([C@H](C)CO)C(=O)c2cc(NS(=O)(=O)c3ccc(F)cc3)ccc2O[C@@H](C)CCCCO[C@@H]1CN(C)Cc1ccc2c(c1)OCO2 | ? | /
Cc1noc(C)c1NC(=O)Nc1ccc2c(c1)C(=O)N([C@H](C)CO)C[C@@H](C)[C@H](CN(C)Cc1ccc(-c3ccccc3)cc1)O2 | -4.2 | -2.7
O=C(Nc1ccccc1F)N[C@@H]1CC[C@@H](CCNC(=O)C2CC2)O[C@@H]1CO | -0.1 | 4.8
CCC(=O)N1C[C@H]2[C@@H](c3ccccc31)[C@H](CO)N2C(=O)CC | 4.0 | -10.6
COc1ccc(S(=O)(=O)N(C)C[C@@H]2Oc3ccc(NC(=O)C4CC4)cc3CC(=O)N([C@@H](C)CO)C[C@H]2C)cc1 | 3.8 | 6.5
C[C@@H]1CCCCO[C@H](CN(C)Cc2ccc3c(c2)OCO3)[C@@H](C)CN([C@@H](C)CO)C(=O)c2cc(NC(=O)CCC(F)(F)F)ccc2O1 | ? | /
C[C@@H]1CN([C@H](C)CO)C(=O)c2cccc(NC(=O)Nc3ccc(C(F)(F)F)cc3)c2O[C@@H]1CN(C)S(=O)(=O)c1ccc(F)cc1 | ? | /
COc1ccc2c3c(n(C)c2c1)[C@H](CO)N(CC1CC1)CC31CCN(C(=O)Nc2c(C)noc2C)CC1 | -4.4 | -17.5
CCCC#Cc1ccc2c(c1)O[C@@H](CN(C)Cc1cccnc1)[C@H](C)CN([C@H](C)CO)S2(=O)=O | ? | /
CN1C[C@H](O)COC[C@@H]2O[C@H](CC(=O)NC3CCCC3)CC[C@H]21 | 4.6 | 12.8
O=C(C[C@@H]1CC[C@H]2[C@@H](COC[C@@H](O)CN2Cc2cccc(C(F)(F)F)c2)O1)NCc1ccccc1 | -24.2 | -14.1
C[C@@H]1CN([C@H](C)CO)C(=O)c2cccc(NC(=O)c3cnccn3)c2O[C@@H]1CN(C)S(=O)(=O)c1cccs1 | 5.7 | -0.3
CC(C)CC#Cc1cnc2c(c1)C(=O)N([C@@H](C)CO)C[C@H](C)[C@H](CN(C)C(=O)c1ccc3c(c1)OCO3)O2 | 16.4 | 10.1
CCCC#Cc1cnc2c(c1)C(=O)N([C@@H](C)CO)C[C@@H](C)[C@@H](CN(C)Cc1ccccc1F)O2 | -16.1 | -7.0
CC(C)C#Cc1ccc2c(c1)O[C@H](CN(C)C(=O)c1cccc(F)c1)[C@@H](C)CN([C@@H](C)CO)S2(=O)=O | ? | /
CCCC#Cc1cnc2c(c1)C(=O)N([C@@H](C)CO)C[C@@H](C)[C@@H](CN(C)Cc1ccncc1)O2 | 14.3 | 14.9
C[C@@H]1CN([C@@H](C)CO)C(=O)c2cc(NC(=O)NC3CCCCC3)ccc2O[C@@H](C)CCCCO[C@@H]1CN(C)C(=O)CCCN(C)C | 12.1 | 7.2
COc1ccccc1-c1ccc2c(c1)[C@H]1[C@H](CCN1C(=O)CN1CCOCC1)[C@H](CO)N2C | -12.7 | -1.7
COc1ccc(CN2C[C@@H](O)COC[C@@H]3O[C@@H](CC(=O)N4CCc5ccccc5C4)CC[C@H]32)cc1 | -20.5 | -16.4
CC=Cc1ccc2n(c1=O)C[C@H]1[C@H](CO)[C@@H](C(=O)N3CCOCC3)N(Cc3ccccc3OC)[C@@H]21 (mixture of isomers) | 8.0 | 4.4
C[C@H](CO)N1C[C@H](C)[C@@H](CN(C)S(=O)(=O)c2cn(C)cn2)Oc2c(NC(=O)Nc3cccc4ccccc34)cccc2C1=O | 7.0 | 3.5
CN(C)C(=O)[C@@H]1[C@@H](CO)[C@@H]2Cn3c(ccc(C4=CCCC4)c3=O)[C@H]1N2CC1CC1 | 14.3 | 6.2
C[C@@H]1CN([C@@H](C)CO)C(=O)c2cc(NC(=O)CCCN(C)C)ccc2O[C@@H](C)CCCCO[C@@H]1CN(C)C(=O)NC1CCCCC1 | 3.0 | 9.4
O=S(=O)(c1ccccc1)N1CC[C@@H]2[C@H](CO)Nc3ccc(Br)cc3[C@@H]21 | -29.0 | -22.7
C[C@@H](NC(=O)[C@H]1[C@H](CO)[C@H]2Cn3c(cccc3=O)[C@@H]1N2C(=O)C1CC1)c1ccccc1 | 14.8 | 5.0

Ordered by heavy-atom count (rising): five of the compounds above
SMILES | Vaccinia inh | Vaccinia inh Venus
CCCC#Cc1cnc2c(c1)C(=O)N([C@@H](C)CO)C[C@@H](C)[C@@H](CN(C)Cc1ccncc1)O2 | 14.3 | 14.9
CCCC#Cc1cnc2c(c1)C(=O)N([C@@H](C)CO)C[C@@H](C)[C@@H](CN(C)Cc1ccccc1F)O2 | -16.1 | -7.0
O=C(C[C@@H]1CC[C@H]2[C@@H](COC[C@@H](O)CN2Cc2cccc(C(F)(F)F)c2)O1)NCc1ccccc1 | -24.2 | -14.1
C[C@@H]1CN([C@H](C)CO)C(=O)c2cccc(NC(=O)c3cnccn3)c2O[C@@H]1CN(C)S(=O)(=O)c1cccs1 | 5.7 | -0.3
C[C@@H]1CN([C@@H](C)CO)C(=O)c2cc(NC(=O)NC3CCCCC3)ccc2O[C@@H](C)CCCCO[C@@H]1CN(C)C(=O)CCCN(C)C | 12.1 | 7.2

Following part
SMILES | Vaccinia inh | Vaccinia inh Venus
C[C@@H]1CN([C@@H](C)CO)C(=O)c2cccc(NC(=O)Nc3cccc4ccccc34)c2O[C@H]1CN(C)S(=O)(=O)c1cccs1 | 20.3 | 8.1
C[C@@H]1CN([C@H](C)CO)S(=O)(=O)c2ccc(-c3ccncc3)cc2O[C@@H]1CN(C)Cc1cncnc1 | 5.6 | -7.4
C[C@@H]1CN([C@H](C)CO)C(=O)Cc2cc(NC(=O)CCN3CCOCC3)ccc2O[C@H]1CN(C)S(=O)(=O)c1cn(C)cn1 | 14.5 | 8.6
Cc1ccc(S(=O)(=O)Nc2ccc3c(c2)C(=O)N([C@H](C)CO)C[C@H](C)[C@@H](CN(C)C(=O)Nc2c(C)noc2C)OCCCC[C@@H](C)O3)cc1 | 19.4 | 15.9
C[C@@H]1CN([C@@H](C)CO)C(=O)c2cc(NC(=O)Nc3cccc4ccccc34)ccc2O[C@@H]1CN(C)C | 0.2 | 2.0
O=S(=O)(c1ccccc1F)N1C[C@@H]2N[C@H](C1)C2c1ccc(-c2cccnc2)cc1 (stereo partly drawn) | ? | /
CN(C)C(=O)c1cccc(-c2ccc([C@@H]3[C@H]4CN(C(=O)C5CCC5)CC(=O)N4[C@H]3CO)cc2)c1 | 5.1 | 12.7
C/C=C/c1ccc([C@H]2[C@@H](CO)N(C(=O)Cc3ccccn3)[C@H]2C#N)cc1 | 14.3 | 29.0
CC(C)NC(=O)Nc1ccc2c(c1)C(=O)N([C@@H](C)CO)C[C@@H](C)[C@@H](CN(C)C(=O)Nc1ccc(F)cc1)OCCCC[C@@H](C)O2 | 10.6 | 7.8
COc1ccc(NC(=O)Nc2cccc3c2O[C@@H](CN(C)Cc2ccc(C(F)(F)F)cc2)[C@@H](C)CN([C@@H](C)CO)C3=O)cc1 | -17.7 | -9.7
COc1ccc(C#Cc2cnc3c(c2)C(=O)N([C@H](C)CO)C[C@H](C)[C@H](CN(C)S(C)(=O)=O)O3)cc1OC | 3.9 | -5.0
CO[C@@H]1CN(C)C(=O)c2cc(NC(=O)NC(C)C)ccc2OC[C@@H](C)N(Cc2ccccc2)C[C@H]1C | -25.9 | -8.8
Cc1ccc(S(=O)(=O)N(C)C[C@H]2OCCCC[C@@H](C)Oc3ccc(NC(=O)c4ccncc4)cc3C(=O)N([C@@H](C)CO)C[C@@H]2C)cc1 | -12.3 | -6.8
CC(C)NC(=O)N(C)C[C@H]1Oc2ccc(NC(=O)Nc3ccccc3)cc2C(=O)N([C@@H](C)CO)C[C@H]1C | 4.7 | 5.2
C[C@H](CO)N1C[C@H](C)[C@H](CN(C)C(=O)C2CCCCC2)OCCCC[C@H](C)Oc2ccc(NS(=O)(=O)c3ccc(Cl)cc3)cc2C1=O | ? | /
O=C(Nc1ccccc1F)N1[C@@H](CO)[C@@H]2c3ccccc3NC[C@@H]21 | 7.2 | 2.2
Cc1noc(C)c1S(=O)(=O)N(C)C[C@H]1OCCCC[C@H](C)Oc2ccc(NS(=O)(=O)c3cn(C)cn3)cc2C(=O)N([C@@H](C)CO)C[C@@H]1C | 9.5 | 5.6
CS(=O)(=O)N1CC(=O)N2[C@H](CO)[C@@H](c3ccc(C#CCC4CCCC4)cc3)[C@@H]2C1 | -10.3 | -11.2
OC[C@@H]1CC[C@@H]2O[C@H](CCc3ccc(-c4ccccc4)cc3)[C@H](n3cc(-c4ccccc4)nn3)C[C@@H]2O1 | -24.0 | -18.1
O=C(C[C@@H]1CC[C@H](NS(=O)(=O)c2cccc(F)c2)[C@@H](CO)O1)NCc1ccc2c(c1)OCO2 | 5.3 | 6.5
COc1cccc(S(=O)(=O)Nc2ccc3c(c2)[C@H]2C[C@@H](CC(=O)NCc4cccc(F)c4)O[C@H](CO)[C@H]2O3)c1 | -22.9 | -10.6
C[C@@H]1CCCCO[C@H](CN(C)CC2CC2)[C@H](C)CN([C@@H](C)CO)C(=O)c2cc(NS(=O)(=O)c3ccc(F)cc3)ccc2O1 | -13.3 | -17.3
COc1ccccc1-c1cnc2c(c1)C(=O)N([C@@H](C)CO)C[C@@H](C)[C@H](CN(C)C(C)=O)O2 | 16.4 | 17.7
O=C(C[C@@H]1CC[C@@H]2[C@H](COC[C@H](O)CN2C(=O)Nc2ccc(F)cc2)O1)NCCCN1CCOCC1 | 15.4 | 4.6
Cc1ccccc1S(=O)(=O)N1CCCCN2[C@H](CO)[C@@H](c3ccc(C#CCN(C)C)cc3)[C@@H]2C1 | ? | /
Cn1cnc(S(=O)(=O)N2CCCCN3[C@H](CO)[C@@H](c4ccc(-c5ccc(F)cc5)cc4)[C@@H]3C2)c1 | -4.4 | -11.9
C[C@@H]1CCCCO[C@H](CN(C)Cc2ccc(C(F)(F)F)cc2)[C@@H](C)CN([C@H](C)CO)C(=O)c2cc(NC(=O)Nc3ccc(F)cc3)ccc2O1 | -7.2 | -6.5
COc1ccc(-c2ccccc2[C@H]2[C@@H](C#N)N(C(=O)C3CCC3)[C@H]2CO)cc1 | 15.1 | 14.8
C[C@@H]1CN([C@@H](C)CO)C(=O)Cc2cc(NC(=O)C3CCCCC3)ccc2O[C@@H]1CN(C)C(=O)Nc1ccccc1 | 17.4 | 7.3
O=C(Nc1ccc(F)cc1)N1C[C@H]2[C@@H](c3ccccc31)[C@H](CO)N2C(=O)c1ccccc1F | 13.2 | 0.9

In the list so far, 2 contain a cyano group.
SMILES | Vaccinia inh | Vaccinia inh Venus
C/C=C/c1ccc([C@H]2[C@@H](CO)N(C(=O)Cc3ccccn3)[C@H]2C#N)cc1 | 14.3 | 29.0
COc1ccc(-c2ccccc2[C@H]2[C@@H](C#N)N(C(=O)C3CCC3)[C@H]2CO)cc1 | 15.1 | 14.8

The results go on.
SMILES | Vaccinia inh | Vaccinia inh Venus
C[C@@H]1CN([C@@H](C)CO)C(=O)c2cc(NC(=O)C3CCCCC3)ccc2O[C@@H]1CN(C)CC1CCCCC1 | -10.1 | -4.5
C[C@H](CO)N1C[C@H](C)[C@H](CN(C)C(=O)Nc2ccc(C(F)(F)F)cc2)Oc2ccc(NC(=O)Nc3ccc4c(c3)OCO4)cc2C1=O | 1.1 | 12.2
COc1ccc(CNC(=O)C[C@H]2CC[C@H](NC(=O)c3ccc4c(c3)OCO4)[C@@H](CO)O2)cc1 | -2.0 | 0.9
CNC[C@@H]1Oc2ccc(NS(=O)(=O)c3c(C)noc3C)cc2CC(=O)N([C@H](C)CO)C[C@@H]1C | 19.8 | 11.7
COCC(=O)N1[C@@H]2c3ccc(-c4ccccc4)c(=O)n3C[C@@H]2[C@@H](CO)[C@@H]1C(=O)Nc1ccccc1 | 10.1 | 3.1
CCCN1[C@@H]2Cn3c(ccc(-c4ccccc4F)c3=O)[C@H]1[C@@H](C(=O)NCc1ccccn1)[C@@H]2CO | 15.7 | 8.8
CN1CCN(C(=O)C[C@@H]2C[C@H]3c4cc(NC(=O)NC5CCCC5)ccc4O[C@H]3[C@H](CO)O2)CC1 | 16.2 | 3.2
C[C@@H]1CN([C@H](C)CO)S(=O)(=O)c2ccc(C#C[C@@H](C)O)cc2O[C@@H]1CN(C)Cc1ccccc1 | 5.4 | 5.0
O=C(C[C@@H]1CC[C@@H](NS(=O)(=O)c2ccc(F)cc2)[C@@H](CO)O1)NCCc1ccncc1 | 1.7 | -3.1
C[C@@H]1CCCCO[C@H](CN(C)C(=O)c2ccccc2)[C@@H](C)CN([C@@H](C)CO)C(=O)c2cc(NC(=O)c3ccccc3)ccc2O1 | -29.5 | -21.8
C[C@@H]1CN([C@H](C)CO)C(=O)c2cc(C3=CCCCC3)cnc2O[C@H]1CN(C)Cc1ccccn1 | -10.7 | -14.2
C[C@@H]1CN([C@H](C)CO)C(=O)c2cc(NC(=O)Nc3cccc4ccccc34)ccc2O[C@H]1CN(C)C(=O)Nc1ccc2c(c1)OCO2 | -3.1 | 6.8
CCC(=O)N(C)C[C@@H]1Oc2cc(-c3cccc(OC)c3)ccc2S(=O)(=O)N([C@@H](C)CO)C[C@@H]1C | 7.2 | -1.3
